Screening data (PubChem BioAssay)
Bead autofluor = compound fluorescence in toxin protease inhibitor counterscreen | 360,000 compounds, 3.1% hits | AID 624483 | compound autofluorescence counterscreen, microsphere flow cytometry; hits give high values | fluorescence intensity (no concentration beside the values);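 active = at least 3 SD above the mean of all compounds, about 16000 in these data; inconclusive = too few beads counted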;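 also: 100 nL of 1 mM stock went into each well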
ugtP null kill = growth inhibition of ugtP-null S. aureus, primary screen, RN4220 ugtP deletion, OD600; 16 h; some inactives read as strong as hits; growth inhibition, % (no concentration beside the values); 330,000 compounds, 0.54% hits; AID 1259309, 2017;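 active = z-score under -3 and OD600 up to 0.15 on both plates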;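 also: plate controls were untreated wells for no effect and antibiotic for full effect; wells of about 80 µL received 100 nL stock; the first replicate is given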
Mtb hypoxia inh = PubChem AID 1159583; M. tuberculosis hypoxia-regulated fluorescent reporter, fluorescence; fluorescence inhibition, % (test concentration not listed); 300,000 compounds, 0.1% hits;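 active = 35 to 45% if threefold the growth effect, above 45% if 1.5-fold the growth effect; inactive = the rest, general growth blockers included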;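 also: wells of about 50 µL received 100 nL stock; 0% = vehicle wells and 100% = reference inhibitor wells; whole bacteria with a GFP reporter of the hypoxia response; strong numbers were not always called active; many hits fall short of the cut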
BJeLR lethal = MLPCN primary cell-based screen for lethality selective to Ras in HRASV12 cells. BJeLR (HRASV12) viability, CellTiter-Glo ATP luminescence, 48 h; reference of the scale not given here. inhibition, % (concentration not given with the values). 300,000 compounds, 0.17% hits;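 active = replicate mean above 50%; inconclusive = above 50% but judged a plate artefact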;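 also: 50 nL library stock added to about 25 µL; numbers are from one replicate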
PrP UTR inh = inhibition of PrP 5' UTR reporter expression; cell-based PrP 5' UTR mRNA reporter, plate reader; inhibition, % (concentration not given with the values); 340,000 compounds, 0.35% hits; AID 488862, 2010;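 active = every replicate at 50% or more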;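 also: 0 = median of the neutral control wells; tested in H4 reporter cells; numbers are from one replicate; inactives centre near -14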
Sa RN4220 lethal = growth inhibition of S. aureus RN4220, primary screen, OD600. 16 h. 330,000 compounds, 0.33% hits. inhibition, % (concentration not given with the values). AID 1259311, 2017;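 active = z-score of -3 or lower and OD600 up to 0.18 on both plates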;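 also: plate controls were untreated cells for no effect and reference antibiotic for full effect; stock transfer was 100 nL into about 80 µL; one replicate is shown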
Mtb hypoxia inh growth = also measured in Mtb hypoxia inh; calls as there; growth inhibition, %; measured here: M. tuberculosis growth (absorbance);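 0% = vehicle and 100% = reference antibiotic; read after six days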
An asterisk follows results filed as active; ? = inconclusive; / = not tested or not shown.

Below each SMILES: Bead autofluor, ugtP null kill, Mtb hypoxia inh, Mtb hypoxia inh growth, BJeLR lethal, PrP UTR inh, Sa RN4220 lethal
> Cn1c(N)c(C(=O)COC(=O)c2ccccc2C(=O)c2ccc(Cl)c([N+](=O)[O-])c2)c(=O)n(C)c1=O
    5058, -7.1, -7.1, -5.0, /, 10.2, 1.1
> N/C(=N\OC(=O)c1ccccc1Cl)c1ccc(Cl)cc1
    2613, -2.8, /, /, -1.8, -67.0, -2.3
> Cc1ccc(Nc2nc(N)nc(CN3CCN(C(=O)c4ccco4)CC3)n2)cc1Cl
    3407, -0.6, 13.4, 19.0, -7.3, -13.1, 8.1
> O=C(NN=Cc1ccccn1)c1ccc(Cl)cc1
    /, -1.4, -3.7, 3.9, /, /, 5.6
> C=CCn1c(O)c(C(C)=NCCCO)c(=O)[nH]c1=O
    2904, -7.5, 1.3, 5.2, -6.6, -17.7, -15.3
> C=CCc1cc(/C=C2/NC(=O)N(CC(=O)OC)C2=O)cc(OC)c1O
    2056, 0.7, 8.7, -2.3, 2.4, -13.0, 5.0
> CN1C(=O)C(CC(=O)Nc2ccc(F)cc2)N(Cc2ccco2)C1=S (stereo not given)
    4982, 3.5, 17.1, -3.8, 2.3, -9.7, 4.1
> CC(C)(C)n1nnnc1C(c1ccc(C(F)(F)F)cc1)N(Cc1ccccc1)Cc1ccco1 (stereo not given)
    2813, 2.2, 8.4, 9.9, -0.5, -14.6, -3.1
> CCOC(=O)COc1ccsc1C(=O)OC
    8824, 1.4, 6.1, 9.3, -0.6, -21.1, 2.3
> CC(=O)c1cccc(NC(=O)Cn2cnc(S(=O)(=O)N3CCCC3)c2)c1
    4003, 8.6, 4.6, -1.8, 4.3, -17.8, 3.7
> O=C(O)CC(C(=O)OC1CCCCC1)N1CCOCC1 (stereo not given)
    5711, 9.4, -2.9, -0.5, 0.3, -13.5, 5.4
> COc1cccc(C(=O)C2CCCN(C(=O)c3ccccn3)C2)c1 (stereo not given)
    5516, 5.4, 17.7, 7.1, 7.3, -10.4, 2.6
> COC(=O)c1cc2c(cc1N)OCCO2
    3800, -2.8, 5.8, 9.8, 2.0, -26.7, 1.6
> O=C(CCN1C(=O)/C(=C\C=C\c2ccccc2)SC1=S)Nc1ccc(C(=O)O)cc1
    4578, 17.1, 3.5, 11.7, -4.0, -7.4, 18.2
> O=C(NC(=S)Nc1nc(-c2cccc([N+](=O)[O-])c2)cs1)c1cc(Cl)ccc1Cl
    3083, 7.6, -8.0, -2.6, 3.5, -33.9, 24.8
> O=C(Nc1ccccc1C(=O)NC1CC1)c1ccccc1F
    8458, -4.3, -4.2, 5.8, /, -10.7, 4.3
> CCOC(=O)C(NC(=O)c1ccccc1)(N1CCOCC1)C(F)(F)F (stereo not given)
    3613, -1.9, /, /, 3.7, -8.5, 10.3
> Cn1c(C(=O)O)cc2cc(Oc3ccccc3)ccc21
    3379, 5.3, 4.6, 2.5, -12.1, -23.7, 5.3
> CCOc1ccc(N2C(=O)C(Cl)=C(N3CCOCC3)C2=O)cc1
    3891, 15.3, 16.7, 7.5, 1.9, -26.2, 7.5
> Cc1nn(-c2ccc(F)cc2)c(Cl)c1/C=C(/CC(=O)O)c1nc2ccccc2s1
    3497, -11.1, 10.7, 2.9, /, -6.6, 5.2
> Cc1cc(C(F)(F)F)c(C#N)c(SCC(=O)NC2CC2)n1
    10035, 8.9, 5.4, 8.2, -5.2, /, 4.8
> COC(=O)c1ccc(CC(=O)c2c(C)cc(O)cc2O)o1
    ?, -0.7, -9.5, 2.2, -1.1, -1.6, -1.8
> COc1cc(Br)c(C2CC(=O)Nc3cc(OC)c(OC)cc32)cc1OC (stereo not given)
    3927, 9.0, 3.1, -3.9, -0.2, -9.2, 1.9
> COc1ccc(-n2nc3c(c2NC(=O)c2ccc(S(=O)(=O)N4CCOCC4)cc2)CS(=O)(=O)C3)cc1
    3372, 0.5, 2.2, 16.4, 3.0, 2.1, 4.1
> Cc1cc(N2CCN(C)CC2)nc(N2CCOCC2)n1
    3159, -0.5, 9.5, 1.9, -7.4, -13.8, -11.1
> N#Cc1nc(-c2ccccc2Cl)oc1NCc1ccco1
    9779, -4.0, -0.1, 15.5, 0.9, -16.8, 3.3
> O=C(Nc1ccc2c(c1)CCC2)c1c(F)cccc1Cl
    4668, 6.2, -3.5, 9.5, 8.4, -68.1, 6.1
> CCCc1cc2nnc(SCC(=O)N(C)C3CCCCC3)n2c(N)n1
    5479, 10.2, -5.4, -9.3, -9.4, -4.7, 0.6
> COC(=O)c1cc(OC)c(OC)cc1NC(=O)c1cc(C(C)(C)C)oc1C
    /, 5.2, -3.1, 8.8, -9.7, -15.4, -1.3
> CCCCC1CCC(C(=O)N(CCCC)c2c(N)n(CCCC)c(=O)[nH]c2=O)CC1 (stereo not given)
    5322, 16.4, 1.5, -22.4, 7.4, -17.0, 2.7

For convenience, some entries already given:
Below each SMILES: Bead autofluor, ugtP null kill, Mtb hypoxia inh, Mtb hypoxia inh growth, BJeLR lethal, PrP UTR inh, Sa RN4220 lethal
> O=C(Nc1ccccc1C(=O)NC1CC1)c1ccccc1F
    8458, -4.3, -4.2, 5.8, /, -10.7, 4.3
> CCOC(=O)C(NC(=O)c1ccccc1)(N1CCOCC1)C(F)(F)F (stereo not given)
    3613, -1.9, /, /, 3.7, -8.5, 10.3
> Cn1c(C(=O)O)cc2cc(Oc3ccccc3)ccc21
    3379, 5.3, 4.6, 2.5, -12.1, -23.7, 5.3
> CCOc1ccc(N2C(=O)C(Cl)=C(N3CCOCC3)C2=O)cc1
    3891, 15.3, 16.7, 7.5, 1.9, -26.2, 7.5

New compounds follow.
Below each SMILES: Bead autofluor, ugtP null kill, Mtb hypoxia inh, Mtb hypoxia inh growth, BJeLR lethal, PrP UTR inh, Sa RN4220 lethal
> Cc1ccc(C)c(NC(=O)CCN2C(=O)[C@@H]3Cc4ccccc4CN3C2=O)c1
    4879, -0.5, -3.6, 3.9, 5.3, -6.7, -0.2
> O=C1CC(N2CCN(CCc3ccccn3)CC2)C(=O)N1c1ccc(Cl)cc1 (stereo not given)
    2430, 4.4, /, /, 0.1, -0.7, 1.0
> Nn1c(SCC(=O)Nc2cccc(Br)c2)nnc1C1CC1
    3711, -2.5, 0.9, 18.3, /, -1.8, 1.5
> CCn1c(=O)c2ccccc2n2c(SCC(=O)N3CCc4ccccc4C3)nnc12
    5879, -2.1, -2.9, 1.3, 1.8, -3.6, -0.9
> COc1ccccc1N1CCN(C(=O)COc2ccc(Cl)cc2Br)CC1
    2974, -7.0, 7.9, 6.3, -2.9, -18.2, 3.3
> COc1ccc(N(C(=O)c2ccco2)C(C(=O)NC2CCCC2)c2cc(OC)c(OC)c(OC)c2)cc1 (stereo not given)
    5545, 3.5, 7.8, 8.6, 0.9, -15.3, -1.9
> CN(C)CCCNC(=O)CCC1CCCCC1
    3277, -0.7, 6.7, 6.6, 1.9, -21.8, -11.1
> COC(=O)[C@@]1(Cc2ccccc2)C2c3cc(C(=O)N4CCCC4)n(CCSCCO)c3CC2CN1C(=O)c1ccccc1 (stereo not given in full)
    /, 8.7, 4.0, 9.9, /, /, 13.6
> Cc1ccc(S(=O)(=O)Nc2cccc(C(=O)NCC3CCCO3)c2)cc1F (stereo not given)
    ?, 9.1, -4.6, -6.9, -3.2, -22.3, 1.1
> O=S(=O)(Nc1ccc(Cc2ccncc2)cc1)c1ccc(Cl)c(Cl)c1
    16421*, 0.5, 3.8, -7.1, -3.4, -2.4, -0.8
> CCOC(=O)c1sc2ncnc(N3CCN(c4ccc(OC)cc4)CC3)c2c1C
    7461, 18.4, 0.7, -0.6, -6.3, -13.3, 0.6
> CCOC(=O)N1CCN(C(c2ccccc2)c2sc3nc(C)nn3c2O)CC1 (stereo not given)
    10174, 4.7, 2.4, 3.6, -7.7, -16.6, 5.4
> Cc1ccccc1-n1c(SCC(=O)N2CCCC2)nnc1-c1ccccn1
    3525, 7.9, /, /, 6.9, -0.4, 3.3
> CC(OC(=O)c1ccc([N+](=O)[O-])o1)C(=O)NC1CCCCC1C (stereo not given)
    4335, 2.0, 2.3, -3.2, /, -14.7, 4.5
> CCOC(=O)Cc1csc(SC(C)C(=O)NCC(=O)Nc2ccc(F)c(F)c2F)n1 (stereo not given)
    /, 3.4, 0.0, -18.0, 0.4, 5.4, 3.4
> CC(/C=C/c1ccccc1)=N\Nc1nc(C)cc(C)n1
    2872, /, /, /, -1.5, -40.2, /
> O=C(Nc1nnc(C2CC2)s1)c1cccs1
    ?, 2.5, 2.9, 1.9, -4.5, -23.4, 2.2
> CC(=O)CSc1nnc2cc(C)c3ccccc3n12
    4692, -10.3, 0.2, 6.8, -4.8, -20.3, 5.7
> COc1ccc(OC)c(CN2CCN(Cc3cc(OC)c(OC)c(OC)c3)CC2)c1
    5837, 5.3, -5.9, 2.0, -0.6, -10.3, 6.0
> CN(C(=O)c1ccc(NC(=O)Cc2ccc(NC(=O)C3CCN(C(=O)CCc4ccccc4)CC3)cc2)cc1)C1CCCC1
    3530, -8.5, -3.8, 4.7, /, -22.6, 7.2
> CN(C)CCCNC(=S)NCC(c1ccc(Cl)cc1Cl)c1c[nH]c2ccccc12 (stereo not given)
    5247, /, /, /, 7.0, -42.0, /
> O=C(O)c1cccc(NC(=S)NC(=O)c2ccc(-c3ccccc3)cc2)c1
    2332, -6.1, 11.3, 0.6, -1.6, -40.2, 9.5
> CSc1ccc(C=NNC(=O)CNc2cccc3ccccc23)cc1
    /, 1.8, 7.0, 14.2, /, /, -1.5
> Cc1ccc(Nc2nc(N)c(C#N)c(CC#N)c2C#N)cc1
    4332, 7.2, -3.9, 0.2, 6.3, -31.4, 14.4
> N/C(=N\OC(=O)/C=C/c1ccccc1)c1ccccc1
    5459, 7.0, 1.0, 2.2, -0.5, -77.1, 5.2
> Cc1cccc(N2CCN(c3nc4ccccc4n4cnnc34)CC2)c1C
    5777, 9.5, -0.7, -1.8, -2.1, -11.3, 4.2
> COc1ccc(N2CCN(C(=O)CCCCn3c(=O)[nH]c4ccsc4c3=O)CC2)cc1
    4462, 2.4, -4.7, -14.5, -16.1, -12.2, 1.1
> COc1ccc(OC)c(S(=O)(=O)N2CCN(c3ncccn3)CC2)c1
    3772, 5.1, 11.6, -4.3, 13.9, -38.0, 5.9
> Cc1nnsc1C(=O)Nc1ccc(S(=O)(=O)N2CCCC(C)C2)cc1 (stereo not given)
    5993, -2.2, 3.9, 9.4, -0.3, -7.3, 1.0
> CC(=O)NCCc1ccc(-c2csc(NC(=O)C3CC(=O)N(C4CCCC4)C3)n2)cc1 (stereo not given)
    /, 4.7, -3.4, 1.5, /, -21.5, 1.2
> CCC(=O)Nc1cc(-c2nn(C)c(=O)c3ccccc23)ccc1OC
    21426*, -7.1, 0.8, 11.0, -13.8, -6.4, 2.0
> COc1ccc(C2=NN(c3ccc(C(=O)O)cc3)C(c3ccc(OC)c(OC)c3)C2)cc1 (stereo not given)
    3058, -5.3, -5.7, 4.1, 4.2, 2.9, 13.3
> Cc1ccnc(NC(=O)c2ccc(S(=O)(=O)N3CCCC3)cc2)c1
    5412, 6.9, 5.0, 2.9, 10.1, -20.1, 2.2
> Nc1nnc(Cc2c[nH]c3ccccc23)s1
    23973*, 6.0, 10.5, 16.0, -1.6, -27.7, 8.3
> N#CC12COC3(CCCCC3C1(C#N)C#N)OC2=N (stereo not given)
    5337, 7.9, 19.5, -2.5, -11.0, -12.0, 4.7
